Screening results from PubChem BioAssay.
VDR inhibitor = vitamin D3 receptor (human) inhibition | P11473 | AID 504847 | Potency, µM, for the others: max response, negative = inhibition, actives largely listed as inhibitors | VDR-SRC2-3 peptide fluorescence polarization, 2 h | 0.93% of 400,000 active; active means well fitted inhibition curve with a large enough effect; inconclusive means small, poorly fitted or top-dose-only effect, or another doubt; inactive means no such curve, though single readings can be large or run the other way; further: series mostly up to about 120 µM
Target sequence (P11473 whole entry, looked up): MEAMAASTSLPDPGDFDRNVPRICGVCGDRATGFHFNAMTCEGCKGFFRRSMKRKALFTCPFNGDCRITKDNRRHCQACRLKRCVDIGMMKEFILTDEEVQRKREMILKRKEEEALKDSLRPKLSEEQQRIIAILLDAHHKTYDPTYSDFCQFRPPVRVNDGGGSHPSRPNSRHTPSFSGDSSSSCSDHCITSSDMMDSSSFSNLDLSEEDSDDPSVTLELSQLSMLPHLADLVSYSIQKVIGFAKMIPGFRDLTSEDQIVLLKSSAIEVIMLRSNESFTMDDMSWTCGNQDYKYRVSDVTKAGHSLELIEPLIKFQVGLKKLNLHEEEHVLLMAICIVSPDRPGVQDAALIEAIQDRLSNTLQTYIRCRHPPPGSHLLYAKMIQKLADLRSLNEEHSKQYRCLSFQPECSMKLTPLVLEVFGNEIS
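Two reagent solutions held at 4 deg C in the dark were dispensed, compounds pinned at 23 nl, and the mixture incubated 2 h at room temperature. Read-out: fluorescence polarization of VDR–SRC2-3 peptide binding.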
* = called active by the depositor; ? = inconclusive; & = joins results of further samples; [ ] = remark or other dose. On the % scale 0 is the no-effect control and ±100 the full control effect; potency means the concentration at half of the fitted maximal effect. Not all compounds are listed; the hit share may differ from the screen's.

Molecule	VDR inhibitor
CCCC12CN3CC(C)(CN(C1)C3c1c(C)[nH]c(=O)[nH]c1=O)C2=O (configuration not stated)	-7%
CN(C)CC1CCCCC1OC(=O)c1ccc(Cl)c(Cl)c1 (configuration not stated)	1%
Cc1oc(-c2ccc(F)cc2F)nc1CN1C[C@@H]2C[C@@H](C1)c1cccc(=O)n1C2	-7%
NNCc1cccc(O)c1	0%
CCCCCCn1c(=O)c(C(=O)Nc2c(C)n(C)n(-c3ccccc3)c2=O)c(O)c2ccccc21	-5%
CCCCn1c(=O)c(C(=O)Nc2ccccn2)c(O)c2ccccc21	-15%
C=C(C=O)C[C@@H]1C[C@H](O)C2OC3C[C@]4(C)OC5/C=C\CC6OC7C(CC=CCC6OC5CCCC4OC3CC2O1)OC1CC2OC3CC(=O)OC3C[C@@H](C)C[C@@]2(C)OC1C[C@@H]7C (some centres not stated)	?
COc1ccc(CCC(=O)NCCc2cnc[nH]2)cc1	-7%
Clc1ccc2c(N3CCNCC3)ccnc2c1	-10%
O=C1NC(=O)C(Nc2ccccc2)C(=O)N1	25µM*
O=C1NC(=S)N(C2CC2)C(=O)/C1=C/c1ccc2c(c1)CCN2CCCCl	-17%
COC(=O)C1=C(c2c(C)noc2C)C[C@@H]2CC[C@H]1N2C(=O)NC1CC1	-21%
CCn1c(=O)cc(OCC(=O)N2CCC3(CC2)OCCO3)c2ccccc21	-3%
CC(Cc1ccccc1)[n+]1cc(/N=C(\[O-])N(C)C)on1 (configuration not stated)	20%
Cc1ccnc(-n2c(C)cc(/C=C3\C(=O)NC(=S)N(C)C3=O)c2C)c1	40µM*
CN[C@@H](C)[C@@H](O)c1ccccc1	-5%
CN1C(=O)N(C)C(=O)C2(Sc3ccccc3C2=O)C1=O	35µM*
O=C1NC(=O)N(CCc2ccc(F)cc2)C(=O)/C1=C/c1ccco1	39%[activator]
N#Cc1ccc(Cn2cc(C(=O)c3ccco3)c3ccccc32)cc1	-8%
COC(=O)c1ccc(CN2CCSC2=N)cc1	0%
Fc1ccc(C(OCCN2CCN(C/C=C\c3ccccc3)CC2)c2ccc(F)cc2)cc1	-16%
CCOP(=O)(OCC)C(NS(=O)(=O)c1ccccc1)C(Cl)(Cl)Cl (configuration not stated)	33%[activator]
COc1ccc(-n2c(=S)[nH]c3c(sc(=S)n3-c3ccccc3)c2=O)c(OC)c1	35µM*
CCCCc1nn2c(=O)cc(COC(=O)Cc3ccccc3)nc2s1	-3%
[O-]c1ccccc1-[n+]1c(-c2ccccc2)cc(-c2ccccc2)cc1-c1ccccc1	5%
CNCC(N)C(=O)O (configuration not stated)	-13%
C=C1C2C[C@H](O)C(C)(C)[C@@]2(O)[C@H](O)C[C@]23C[C@@](C)(O)[C@H](CC[C@H]12)[C@H]3OC(C)=O (some centres not stated)	-8%
C[N+]1(CC(COCc2ccccc2)OC(=O)Cc2ccccc2)CCOCC1 (configuration not stated)	-1%
Oc1ccc2c3c1OC1C(O)CC[C@]4(O)C(C2)N(CC2CCC2)CC[C@]314 (some centres not stated)	0%
O=C/C=C/c1ccccc1	-1%&0%
CCCc1nc2ccccc2c(=O)n1-c1cccc(OC)c1	12%
COc1cc(C2C(C#N)=C(N)Oc3n[nH]c(-c4cccnc4)c32)ccc1OCC(N)=O (configuration not stated)	68%[activator]
Cc1cccc(C)c1N1CCN(c2c(C)cccc2C)CC1	1%
CNCCc1c[nH]c2ccc(O)cc12	-5%&-21%
Cc1ccc(C(=O)COC(=O)Cc2ccccc2)cc1	2%
O=C(Nc1ccon1)c1cccn(Cc2cccc(Cl)c2)c1=O	2%
COc1ccc2c(c1)CC1(CN2C)C(=O)NC(=O)N(c2ccc(C)cc2)C1=O (configuration not stated)	7%
Cc1nn(C)cc1/C=C1/CC2C3CC=C4CC(O)CCC4(C)C3CCC2(C)C1=O (configuration not stated)	10%
O=C(Nc1ccc(Cl)c(Cl)c1)c1ccco1	2%
CNC(=O)O/N=C(\N)Cc1csc2ccc(Cl)cc12	-21%
CC12C(C(=O)O)C1(c1ccccc1)C2C(=O)O (configuration not stated)	?
O=C(NCCCN1CCOCC1)C(Cl)(Cl)Cl	-10%
CC(=O)Oc1c2c(c(CC=C(C)C)c3c1C(=O)C1=CC4CC5C(C)(C)OC(C/C=C(\C)C(=O)O)(C4=O)[C@]15O3)OC(C)(CCC=C(C)C)C=C2 (some centres not stated)	1.3µM*
Cc1[nH]c2ccc(O)cc2c1CCN	-1%&4%
CN(C)C(=O)Oc1ccc(Br)c2ccccc12	2%
c1cncc(CNC2CCCC2)c1	6%
CC(C)(C)OC(=O)c1c(N)n(Cc2ccco2)c2nc3ccccc3nc12	?
CCCCNC(=O)c1c(N)n(Cc2ccc3c(c2)OCO3)c2nc3ccccc3nc12	?
CN(C=O)CP(=O)(O)CN(C)C=O	20%
CC(C)c1ccc(OCC(=O)N2CCCN(C)CC2)cc1	-5%
CCOP(=S)(OCC)SCC(=O)NC(C(=O)O)C(C)C (configuration not stated)	4%
O=C(Oc1ccccc1)N1CCC2(CCN(Cc3nccs3)CC2)CC1	8%
COc1ccc(C(Nc2ccccc2)P(=O)(Oc2ccccc2)Oc2ccccc2)cc1 (configuration not stated)	4%
COC1=CC2C3Cc4ccc(OC)c(O)c4C2(CCN3C)CC1=O (configuration not stated)	-6%
Nc1ccncc1Cl	-6%
COc1ccc2nc3oc(C(=O)N4CCC5(CC4)OCCO5)cc3cc2c1	12%
O=c1c2ccccc2nc(CSc2ncnc3nc[nH]c23)n1-c1ccc(Cl)c(Cl)c1	-2%
N#CCCCCC#N	1%
C[C@H]1CN(C2CCC(C#N)(c3ccc(F)cc3)CC2)CC[C@@]1(C(=O)O)c1ccccc1 (some centres not stated)	8%
O=C1CC(=O)N(Cc2ccccc2)C(=O)N1CCCCCCN1C(=O)CC(=O)N(Cc2ccccc2)C1=O	4%

Structural class: the entries above containing two or more sulfur atoms
Molecule	VDR inhibitor
COc1ccc(-n2c(=S)[nH]c3c(sc(=S)n3-c3ccccc3)c2=O)c(OC)c1	35µM*
CCOP(=S)(OCC)SCC(=O)NC(C(=O)O)C(C)C (configuration not stated)	4%

Next section
Molecule	VDR inhibitor
N[C@@H](Cc1c[nH]c2ccccc12)c1nnc(SCc2ccc(Cl)cc2)o1	10%
CC(=NCc1cccnc1)c1c(O)n(-c2ccccc2)c(=O)[nH]c1=O	3%
Nc1c(C(=O)NCc2ccco2)c2nc3ccccc3nc2n1Cc1ccccc1	-20%
Cc1ccc(CN2CCCN(Cc3ccccc3C)S2(=O)=O)cc1	6%
COc1cc2[nH]c(C(=O)N3CCC4(CC3)OCCO4)cc2c(OC)c1OC	16%
CCC(=NCC1CCCO1)c1c(O)[nH]c(=O)[nH]c1=O (configuration not stated)	-3%
O=C(CN1CCCCC1)c1ccccc1F	9%
CCn1cc(C(=O)N2CCOCC2)c2ccccc21	-12%
CN(C)CCCN=Cc1c(O)n(Cc2ccco2)c(=O)[nH]c1=O	-17%
COC(=O)C1=C(c2ccc(OC(F)(F)F)cc2)C[C@@H]2CC[C@H]1N2C(=O)NCc1cccc2ccccc12	22%
Cc1cc2ccccc2c(=O)n1CC(=O)NCC(=O)N1CCC2(CC1)OCCO2	3%
CCOc1ccc(NC(=O)c2ccc(NC(=O)COC(=O)Cc3ccccc3)cc2)cc1	9%
COCCNC(=O)c1c(N)n(CCC(C)C)c2nc3ccccc3nc12	?
CCCN(CCC)[C@@H]1CCc2ccc(O)cc2C1	4%
O=C(C(Cc1ccccc1)NS(=O)(=O)c1ccc(F)cc1)N1CCC2(CC1)OCCO2 (configuration not stated)	-5%
CCCCn1c(=O)c(C(=O)Nc2ccccc2)c(O)c2ccccc21	-2%
CC(C)(C)NC[C@H](O)c1cc(Cl)c(N)c(Cl)c1	-2%
COC(=O)C(O)(c1c(C)[nH]n(-c2ccccc2)c1=O)C(F)(F)F (configuration not stated)	?
CCCCn1c(O)c(C(CC)=Nc2ccc(OC)cc2OC)c(=O)[nH]c1=O	0%
C[C@]12CCC3C(CC[C@H]4C[C@@H](O)[C@H](O)C[C@]34C)C1CC[C@@H]2O (some centres not stated)	-17%
CC=C(C)C(=O)OC1CCN2CC=C(COC(=O)C(O)(C(C)OC)C(C)(C)O)C12 (configuration not stated)	2%
O=C1NC(=O)C(CCc2ccncc2)(CCc2ccncc2)C(=O)N1Cc1ccc(F)cc1	6%
CCOC(=O)c1c(NS(=O)(=O)c2ccccc2)n(CCCOC)c2nc3ccccc3nc12	?
Cc1cc(Cl)ccc1OCC(=O)N1CCN(C)CC1	7%
COc1ccccc1OCC#CCN1CCCC1	8%
O=C(CNC(=O)c1cccc(Cl)c1)Nc1ccc(Br)cc1C(=O)c1ccccc1	-2%
CC(C)c1ccc(NC(=O)CCNC(=O)N2C[C@H]3C[C@@H](C2)c2cccc(=O)n2C3)cc1	-3%
C[C@@H]([C@@H](O)c1ccccc1)N(C)C(=O)Cc1ccccc1	4%
N#Cc1cccc(NC(=O)c2sc3nc4c(cc3c2N)N2CCC4CC2)c1	8%
O=C1NC(=S)N(c2ccccc2F)C(=O)/C1=C\c1cccs1	?
COC(=O)C1=C(c2ccc(F)cc2OCc2ccccc2)C[C@@H]2CC[C@H]1N2C(=O)NCc1ccccc1C(F)(F)F	-12%
COC(=O)c1cc(C(O)(C(=O)OC)C(F)(F)F)c(/N=C/N(C)C)s1 (configuration not stated)	-4%
C=CCN1CC[C@]23c4c5ccc(O)c4O[C@H]2[C@@H](O)C=C[C@H]3[C@H]1C5	0%
Fc1ccc(Cn2nnnc2C(c2ccc(Cl)cc2)N2CC=C(c3ccc(F)cc3)CC2)cc1 (configuration not stated)	-7%
COc1ccc(OC)c(N2C(=O)NC(=O)/C(=C\c3ccc([N+](=O)[O-])s3)C2=O)c1	?
O=C(O)CC1OCC=C2CN3CCC45C6=CC(=O)C(=O)C([N+](=O)[O-])=C6NC4C1C2CC35 (configuration not stated)	79µM*
CC(N)(COP(=O)(O)Oc1ccccc1)C(=O)O (configuration not stated)	23%
C[C@H](NC(=O)[C@@H](N)Cc1ccc(O)cc1)C(=O)N[C@@H](Cc1ccccc1)C(=O)NCC(=O)N[C@@H](Cc1ccc(O)cc1)C(=O)N1CCC[C@H]1C(=O)N[C@@H](CO)C(N)=O	2%
Cc1cccc(Cn2cccc(C(=O)Nc3nc4ccccc4s3)c2=O)c1	4%
COC(=O)C1=C(c2ccc(OC(F)(F)F)cc2)C[C@@H]2CC[C@H]1N2C(=O)NC1Cc2ccccc2C1	-3%
CC1CC(O)[C@]2(O)[C@]13CC(=O)OC[C@@]2(C)[C@@](C)(O)C(=O)C3 (some centres not stated)	13%
Oc1ccc2c3c1O[C@H]1c4oc5ccccc5c4C[C@]4(O)[C@H](C2)N(CC2CC2)CC[C@@]314	0%
CCCC[N+]12CCC(CC1)C(Cc1ccccc1)C2 (configuration not stated)	-3%
O=C(c1ccco1)N1CCC2(CC1)CN(Cc1ccncc1)C2	-9%
COCC(C)N(C(=O)CCl)c1c(C)csc1C (configuration not stated)	-9%
Cn1c(O)c(/C=C2\C=Nc3ccccc32)c(=O)n(C)c1=O	-15%
O=C(Cn1ccc2ccccc2c1=O)NCC(=O)N1CCC2(CC1)OCCO2	12%
Cc1ccc(N2C(=O)NC(=O)C(CCc3ccccn3)(Cc3cccc(Cl)c3Cl)C2=O)cc1 (configuration not stated)	-14%
CC[C@H](C)/C=C(C)/C=C/C1=CC2=C(Cl)C(=O)[C@@](C)(OC(C)=O)C(=O)C2=CO1	40µM*
C=CCN1C(=O)C2(C(C(=O)OCC)=C(N)Oc3ccccc32)C2=C1CCCC2=O (configuration not stated)	39%[activator]
CCCCNC(C)Cc1ccccc1 (configuration not stated)	-2%
O=[N+]([O-])c1cccc(NP(=O)(N2CC2)N2CC2)c1	6%
CN1C(CC(O)c2ccccc2)CCCC1CC(O)c1ccccc1 (configuration not stated)	9%
Oc1ccc2c3c1OC1[C@H](O)CC[C@@]4(O)[C@@H](C2)N(CC2CC2)CC[C@]314 (some centres not stated)	-19%&1%
Cc1cccc(NC(=O)CN2CCN(C(=O)COc3cccc(Br)c3)CC2)c1C	-9%
CCOc1cc(C)cc2oc(=O)c3c(c12)CCCC3	-8%
Cc1[nH]c2ccccc2c1CCCNC1CCCCC1	-1%
Cc1ccc(S(=O)(=O)N2CC3CC(C2)c2cccc(=O)n2C3)cc1 (configuration not stated)	-8%
CC1(C)CSC(=NCc2ccccc2)N1	-6%
N/C(=N\N=C\c1ccc(O)cc1O)N[N+](=O)[O-]	6%

Shown as labelled records: entries from further up
canonical_smiles: COc1ccc2nc3oc(C(=O)N4CCC5(CC4)OCCO5)cc3cc2c1
  VDR inhibitor: 12%

canonical_smiles: O=c1c2ccccc2nc(CSc2ncnc3nc[nH]c23)n1-c1ccc(Cl)c(Cl)c1
  VDR inhibitor: -2%

canonical_smiles: N#CCCCCC#N
  VDR inhibitor: 1%

canonical_smiles: C[C@H]1CN(C2CCC(C#N)(c3ccc(F)cc3)CC2)CC[C@@]1(C(=O)O)c1ccccc1 (some centres not stated)
  VDR inhibitor: 8%
